VACV Venus inh: qHTS for Stage-Specific Inhibitors of Vaccinia Orthopoxvirus: Venus Reporter Primary qHTS; Vaccinia virus Venus reporter expression, fluorescence; Potency, µM (highest dose often 36.5 µM), for inactives: top-dose activity change, negative = inhibition, usual class: inhibitors; 0.46% of 330,000 active; AID 720580, 2013; active means well fitted inhibition curve with a large enough effect; inconclusive means small, poorly fitted or top-dose-only effect; inactive means no such curve, though single readings can be large or run the other way; tested in A549 cells; note: nearly all actives have a fitted effect of over 30% in size; inactives centre near -10
VACV mCherry inh: qHTS for Stage-Specific Inhibitors of Vaccinia Orthopoxvirus: mCherry Reporter Primary qHTS | Vaccinia virus mCherry reporter infection, fluorescence; about a quarter of the inactives have no number | Potency, µM (series often up to 36.5 µM), inactives show top-dose activity change, negative = inhibition, usual class: inhibitors | 0.63% of 310,000 active | AID 720579, 2013; active = well fitted inhibition curve with a large enough effect; inconclusive = small, poorly fitted or top-dose-only effect; inactive = no such curve, though single readings can be large or run the other way; tested in A549 cells; note: nearly all actives have a fitted effect of over 35% in size; inactives centre near -10
* hit, by the source's call; i = inactive; u = inconclusive; x = no result given. % is set by controls: 0 for no effect and ±100 for the full control effect; potency is the fitted concentration of half-maximal effect.

SMILES | VACV Venus inh | VACV mCherry inh
COc1ccc(N2CCN(C(=S)Nc3cc(C)ccc3C)CC2)cc1 | -12% | -13%
CC1CCCCC1NC(=O)CN1CCC(O)(c2ccc3c(c2)OCO3)CC1 (stereo not drawn) | -4% | i
COc1ccccc1NC(=O)c1ccc2c(c1)N(CC(=O)NC(C)(C)C)C(=O)C(C)(C)O2 | 0% | 9%
CC1(c2ccccc2)CC(C)(C)N(C(=O)c2cccc(Cl)c2)c2ccccc21 (stereo not drawn) | -7% | -9%
Cc1ccc(NC(=O)CSc2n[nH]c(-c3cccnc3)n2)cc1Cl | -2% | i
CCN(CC(=O)Nc1ccc(NC(C)=O)cc1)C(=O)CSc1nnc(-c2ccco2)n1CC | -4% | -11%
CCC(C)c1ccccc1NC(=O)COC(=O)C1=COCCO1 (stereo not drawn) | 15% | -24%
Cc1cccc(NP(C)(=O)c2nc3c(s2)CCCC3)c1 (stereo not drawn) | -4% | -13%
CCc1cc2c(-c3ccccc3)cc(=O)oc2cc1OC(=O)c1cccs1 | 4% | -4%
Cc1ccc2cc(C#N)c(N3CCCN(S(=O)(=O)c4ccc(F)cc4)CC3)nc2c1 | -21% | -12%
CN(C(=O)CSc1nc(-c2ccccc2)cs1)C1CCS(=O)(=O)C1 (stereo not drawn) | -21% | x
CCOc1ccc(CCNC(=O)CN2CCN(Cc3ccc(F)cc3Cl)C2=O)cc1OCC | -4% | -14%
CC(C)c1ccc(NC(=O)Nc2nc(C(N)c3ccccc3)cs2)cc1 (stereo not drawn) | u | -27%
Cc1cc(Cl)ccc1OCCCC(=O)N1CCN(S(=O)(=O)c2ccccc2)CC1 | -18% | 0%
Cc1ccc(C(=O)N2CCn3c4c(c5cc(C)ccc53)CCCC42)cc1 (stereo not drawn) | -8% | -2%
CCOC(=O)c1nc2ccccc2c(C)c1C | 4% | 9%
COc1ccc(NC(=O)COc2cccc3c2CCN(C)C3=O)c(OC)c1 | -11% | -3%
COc1ccc(NS(=O)(=O)c2cc(NC(=O)c3ccccc3F)ccc2N2CCCC2)cc1 | -25% | u
CC1(C(=O)NC2CCCCC2)CCC(=O)N1Cc1ccc2c(c1)OCO2 (stereo not drawn) | -1% | i
CCc1nnc(NC(=O)CN2CCN(Cc3cccc(OC)c3)CC2)s1 | -20% | -24%
COc1ccc(S(=O)(=O)N2CCCC2C(=O)n2nc(C)cc2C)cc1 (stereo not drawn) | -23% | -9%
Oc1ccc(-c2csc(Nc3cccc4ccccc34)n2)cc1O | -18% | -18%
CC(Sc1cccc(C(F)(F)F)c1)C(=O)NC(N)=O (stereo not drawn) | -11% | -12%
COc1cccc2sc3ccc(NCc4ccc5c(c4)OCO5)cc3c(=O)c12 | -13% | -10%
CCOC(=O)CCCSc1nc2sc(C)c(C)c2c(=O)[nH]1 | -9% | -2%
Continuation:
SMILES | VACV Venus inh | VACV mCherry inh
CCCCn1nnnc1C(C1CC1)N1CCC(n2c(=O)[nH]c3ccccc32)CC1 (stereo not drawn) | -2% | i
CCCCn1c(N)c(N(CCC(C)C)C(=O)C2=NN(c3cc(C)ccc3C)C(=O)CC2)c(=O)[nH]c1=O | 5% | -11%
Cc1ccc(CS(=O)(=O)c2ccc(C(=O)N3CCN(c4ccccn4)CC3)cc2[N+](=O)[O-])cc1 | -21% | -29%
Cc1ccc(CNC(=O)c2cccc(NC(=O)N3CCSc4ncccc43)c2)cc1 | 1% | -6%
COc1ccc(C(=O)N(c2ccccc2)c2nccc3ccccc23)cc1OC | -3% | 7%
O=C(c1cc(-c2ccc(Br)cc2)n[nH]1)N1CCN(S(=O)(=O)c2ccc(Br)cc2)CC1 | u | -12%
C=CCN(c1ccccc1OC)S(=O)(=O)c1cccc(C(=O)NCc2ccco2)c1 | -3% | -10%
O=C(Nc1ccc(Br)cc1F)c1ccncc1 | u | x
Cc1cc(C)cc(NS(=O)(=O)c2c(C)nc3scc(C)n3c2=O)c1 | -8% | -19%
COC(=O)c1ccc(C(=O)N2CCCC(C)(C(=O)NS(=O)(=O)C3CC3)C2)cc1 (stereo not drawn) | 11% | -2%
CN1C(=O)CON=C1c1cccc2ccccc12 | 8% | 14%
CC(NS(=O)(=O)c1ccccc1)C(=O)NCc1ccco1 (stereo not drawn) | 3% | -16%
N#C/C(=C\c1cn(Cc2ccc(F)cc2)c2ccccc12)C(=O)NCc1ccco1 | -11% | i
CCOC(=O)CCc1c(C)nc2c(c(C)nn2-c2ccc(C)cc2)c1C | -3% | -1%
Cc1ccc(C(=O)N2CCN(C(=O)N3CCOCC3)CC2)cc1 | 0% | -1%
COC(=O)[C@@]12C[C@@H](CC(=O)NCc3cccc4ccccc34)C(=O)N(CCc3ccc(OC)c(OC)c3)C1=CCC(C)(C)C2 | u | u
Cc1ccc(NC(=O)CCNC(=O)N2C[C@H]3C[C@@H](C2)c2cccc(=O)n2C3)c(C)c1 | -3% | -2%
CCC1(CC)NC(=O)N(CC(=O)N2N=C(c3ccc(Cl)cc3)CC2c2ccco2)C1=O (stereo not drawn) | u | -20%
CSc1ccc(CNCc2c(C(=O)O)c(C)n(Cc3ccc(F)cc3Cl)c2C)cc1 | -2% | -12%
O=S(=O)(c1cccc2nonc12)N1CCN(c2ccccc2F)CC1 | -8% | -8%
COc1ccc(S(=O)(=O)N2CCN(CC(=O)Nc3c(C)n[nH]c3C)CC2)cc1OC | -19% | -13%
CC(NC(=O)c1cccc(N(C)C)c1)c1ccc(-n2ccnc2)cc1 (stereo not drawn) | -24% | -24%
Cn1cc(-c2cc3n(n2)CCC(=O)N3CCCC(=O)NCc2ccccc2Cl)c2ccccc21 | -2% | -2%
O=C(Nc1cccc(-c2cn3c(n2)SCC3)c1)c1ccc(Br)o1 | -9% | i
Cc1ccc(O)c(C(=O)c2cnn(C(=O)c3cccc(S(=O)(=O)N(C)C)c3)c2)c1 | -14% | -14%

Grouped by structure, the entries above with two or more sulfur atoms.
SMILES | VACV Venus inh | VACV mCherry inh
CN(C(=O)CSc1nc(-c2ccccc2)cs1)C1CCS(=O)(=O)C1 (stereo not drawn) | -21% | x
CCOC(=O)CCCSc1nc2sc(C)c(C)c2c(=O)[nH]1 | -9% | -2%
Cc1cc(C)cc(NS(=O)(=O)c2c(C)nc3scc(C)n3c2=O)c1 | -8% | -19%

(more compounds)
SMILES | VACV Venus inh | VACV mCherry inh
CCc1nn(-c2ccccc2)c2nc(-c3ccc(O)cc3)c3cc(OC)c(OC)cc3c12 | -11% | -13%
Cc1cccc(-c2nnc(SCC(=O)c3ccc(O)cc3O)n2C)c1 | -12% | -4%
COc1cc(CN(C(=O)c2ccc(OC(C)C)cc2)c2ccccn2)cc(OC)c1OC | -20% | -12%
Cc1ccc(N2CC(C(=O)N3CCN(c4ccccc4)CC3)CC2=O)cc1 (stereo not drawn) | -13% | i
COc1cc2c(cc1NC(=O)c1ccc3c(c1)OCO3)oc1ccccc12 | 5% | -9%
Cc1ccc(Cl)c(OCC(=O)Nc2ccc(S(=O)(=O)NC3=NCCCCC3)cc2)c1 | -5% | -17%
CC(C)CCN(C(=O)Cc1ccc(Cl)c(Cl)c1)c1c(N)n(Cc2ccccc2)c(=O)[nH]c1=O | -14% | -8%
CC1CCN(S(=O)(=O)c2cccc3cccnc23)CC1 | -8% | -3%
CCN(CC)S(=O)(=O)c1ccc(N2CCCC2)c(NC(=O)Cc2ccc(OC)cc2)c1 | -6% | -9%
CCc1nnc(NS(=O)(=O)c2ccc(NC(=O)c3ccc(C#N)cc3)cc2)s1 | -13% | i
Cc1ccc(C(=O)Nc2cccc(-c3nc4ccccc4o3)c2)c(Cl)c1 | 3% | -3%
COc1ccc2cc(S(=O)(=O)NC3CC(C)(C)NC(C)(C)C3)ccc2c1 | -18% | -22%
Cc1ccsc1C(=O)N1CCC1(C)C(=O)Nc1cccc(C#N)c1 (stereo not drawn) | 2% | 3%
O=C(CSc1nnc(C2CCCCC2)n1-c1ccccc1)NCc1ccco1 | -12% | -12%
CC(=O)Nc1ccc(C2=NNC(=Nc3ccc(S(=O)(=O)N4CCOCC4)cc3)SC2)cc1 | -3% | -15%
C/C(=N\NC(=O)c1nnn(-c2nonc2N)c1-c1ccc2c(c1)OCO2)c1cccs1 | -12% | i
COc1ccc(CN2CCCCCC2)cc1Br | -6% | i
Cc1noc2ncnc(Oc3ccc(F)cc3)c12 | -24% | x
O=C(NCCc1ccncc1)Nc1ccc(Cl)c(Cl)c1 | -7% | -9%
CCCc1nn2c(=O)cc(COC(=O)CNC(=O)COc3ccc(C)cc3)nc2s1 | -5% | 4%
COc1cc(NC(=O)COc2ccccc2[N+](=O)[O-])ccc1NC(=O)c1cccs1 | u | -18%
O=C1C(=NO)C(c2ccccc2)Oc2ccccc21 (stereo not drawn) | -23% | -25%
N#Cc1cccc(-c2cc(-n3ccnc3)ncn2)c1 | 0% | 11%
CCCCNC(=O)/C(=C\c1ccc([N+](=O)[O-])o1)NC(=O)c1ccccc1 | u | u
O=C(Cc1ccccc1Cl)NO | -16% | -23%

Fetched by structure from the entries so far, three records:
SMILES | VACV Venus inh | VACV mCherry inh
COc1ccc(N2CCN(C(=S)Nc3cc(C)ccc3C)CC2)cc1 | -12% | -13%
COc1ccc(NS(=O)(=O)c2cc(NC(=O)c3ccccc3F)ccc2N2CCCC2)cc1 | -25% | u
Cc1cccc(NP(C)(=O)c2nc3c(s2)CCCC3)c1 (stereo not drawn) | -4% | -13%

Ordered by SMILES length (smallest number first): 3 of the compounds above.
SMILES | VACV Venus inh | VACV mCherry inh
Cc1cccc(-c2nnc(SCC(=O)c3ccc(O)cc3O)n2C)c1 | -12% | -4%
O=C(CSc1nnc(C2CCCCC2)n1-c1ccccc1)NCc1ccco1 | -12% | -12%
COc1cc(CN(C(=O)c2ccc(OC(C)C)cc2)c2ccccn2)cc(OC)c1OC | -20% | -12%

Among those listed so far, 4 have bromine:
SMILES | VACV Venus inh | VACV mCherry inh
O=C(c1cc(-c2ccc(Br)cc2)n[nH]1)N1CCN(S(=O)(=O)c2ccc(Br)cc2)CC1 | u | -12%
O=C(Nc1ccc(Br)cc1F)c1ccncc1 | u | x
O=C(Nc1cccc(-c2cn3c(n2)SCC3)c1)c1ccc(Br)o1 | -9% | i
COc1ccc(CN2CCCCCC2)cc1Br | -6% | i

(listing goes on)
SMILES | VACV Venus inh | VACV mCherry inh
O=C(CN1CCC(C(=O)c2ccc3c(c2)OCCO3)CC1)Nc1ccccc1F | -25% | u
CCOC(=O)c1c(C)[nH]c(C)c1S(=O)(=O)N(C)CC(=O)NCc1cccc(Br)c1 | u | -21%
CN(C)S(=O)(=O)c1ccc(NC(=O)CN2CCC(Cc3ccccc3)CC2)cc1 | -20% | -27%
CC(C)N(CC#CC(O)(c1ccccc1)c1ccccc1)C(C)C | -13% | i
CC(C)C1C(=O)N2CCC[C@H]2[C@]2(O)O[C@](NC(=O)[C@@H]3C=C4c5cccc6[nH]cc(c56)C[C@H]4N(C)C3)(C(C)C)C(=O)N12 (stereo partly drawn) | 15% | -11%
NC(=O)C(Cc1ccccc1)N1C(=O)c2ccccc2C1=O (stereo not drawn) | -8% | -4%
CCc1ccc(NC(=O)C(=O)NCc2ccccn2)cc1 | -16% | i
COc1ccccc1C(=O)N1CC2(C)CC1CC(C)(C)C2 (stereo not drawn) | 2% | x
CC[C@]12c3[nH]c4cc(CCC(=O)N(C)C)ccc4c3CCN1C(=O)[C@@H](CC(=O)NCC13CC4CC(CC(C4)C1)C3)C[C@@H]2C(=O)N1CCN(C(=O)c2ccco2)CC1 | u | i
CC(C)(C)OC(=O)C[C@@H]1C/C=C\C[C@@H](CC(=O)N(CCO)Cc2ccccc2)C(=O)N2CCC[C@H]2COC1=O | -13% | -14%
O=C(c1ccc(N2CCOCC2)c([N+](=O)[O-])c1)N1CCN(c2ccccc2F)CC1 | u | -10%
Cc1ccc(CNc2cc(C)nc3nc(-c4cccc(C)c4)nn23)cc1 | 22% | -17%
CCOC(=O)c1cc(-c2ccc(C)cc2)n(CCC(=O)Nc2ccc(OC)c(OC)c2)c1C | -6% | -17%
COc1cccc(C2=CC(=O)C[C@H](c3ccc(OC)c(OC)c3)C2)c1 | -22% | -20%
COC(=O)N/N=C(\C)c1ccco1 | 7% | 6%
CCOCCCNC(=O)c1cc(Sc2cccc(Cl)c2)nc2ccccc12 | -5% | 4%
O=C(Nc1ccccc1)OC1CCCCc2cccnc21 (stereo not drawn) | 5% | i
O=C(c1ccc(F)cc1)c1cn(Cc2ccccc2F)c2cc3c(cc2c1=O)OCCO3 | -9% | -13%
CNc1nc(C)c(C#N)c(-c2ccccc2)c1C(C)=O | -28% | x
Cc1c(NC(=O)CSc2ccc(Cl)cc2)cccc1-c1nc2ncccc2o1 | -23% | -26%
Cc1ccc(CN2CCN(Cc3ccc4ncccc4c3)CC2CCO)cc1 (stereo not drawn) | -15% | -9%
CN(C)CCN(C)CCc1ccc(Cl)c(Cl)c1 | -13% | -16%
CC(=O)OC1N=C(c2ccccc2)c2ccccc2NC1=O (stereo not drawn) | -8% | -11%
COC(=O)C(N)CS (stereo not drawn) | 1% | -7%
COc1ccc(-n2c(C)cc(C(=O)CN3C(=O)NC4(CCc5ccccc54)C3=O)c2C)cc1 (stereo not drawn) | -21% | -28%
O=[N+]([O-])c1cc(C(F)(F)F)ccc1NCCc1c[nH]c2ccccc12 | -14% | -29%
Cc1cc(C(F)F)nn1CC(=O)NC1C(=O)N2C(C(=O)O)=C(CSc3nnnn3C)CSC12 (stereo not drawn) | -5% | i
COc1ccc(/C=C/C(=O)Nc2cc(S(=O)(=O)N3CCCCC3)ccc2N2CCCCC2)cc1OC | -1% | -14%
Cc1nnc(N2CCC(C(=O)NCCc3ccccc3)CC2)c2nn(-c3ccccc3)c(C)c12 | 1% | -15%
